From PubChem BioAssay
PINK1 expr mod – PINK1 expression modulation; PINK1 immunofluorescence, high-content cytometry, 24 h; Potency, µM (top dose mostly 76.6 µM), inactives show at the top dose activation (PINK1 increase), hits mostly activators; 410,000 tested, 0.2% active; AID 624263; active = well fitted activation curve with a large enough effect; inconclusive = small, poorly fitted or top-dose-only effect; inactive = flat fitted curve, though single readings scatter; cell line not stated here;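 also: potency is read from the fitted curve at half-maximal effect; % of control where 0% means no effect; nearly all actives have a fitted effect of over 65% in size; a mitochondrial uncoupler was the plate control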
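Measures PINK1 amount and localization on or inside mitochondria by immunofluorescence. Stable cells get compounds at 5 concentrations for 24 hours before fixation and staining; CCCP controls included.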
TRPV1 potentiator – enhances activation of the human vanilloid receptor TRPV1; 320,000 tested, 0.02% active; TRPV1-expressing cells, Fluo-8 calcium influx, capsaicin EC20 potentiation; host cell line not named in the record; control for the full effect not named in the record; potentiation, % at 8.33 µM; active means potentiation above 80%; inconclusive means 30% to 80%; inactive means below 30%; also: 0% is about no effect
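Cells expressing TRPV1 were dye-loaded with Fluo-8 and read kinetically: 10 s baseline, 3 min after compound (agonist portion), then 2 min after EC20 capsaicin (allosteric enhancer portion). Calcium-bound dye fluorescence at 480/520 nm.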
Sfp PPTase inh – Sfp phosphopantetheinyl transferase inhibition | Q9F4F7 | Biochemical Sfp PPTase activity, qHTS | Potency, µM, inactives show max response, negative = inhibition, hits mostly inhibitors | 310,000 tested, 3.5% active; active = well fitted inhibition curve with a large enough effect; inconclusive = small, poorly fitted or top-dose-only effect, or another doubt; inactive = no such curve, though single readings can be large or run the other way;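 also: the enzyme is Sfp with the accession as filed and its product quenches rhodamine fluorescence; potency is read from the fitted curve at half-maximal effect; 0% = enzyme reaction without inhibitor and -100% = no enzyme wells; top concentration of the series not given in the record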
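After 15 min at room temperature with compound, 15 nM Sfp received 5 uM rhodamine-CoA plus 12.5 uM BHQ-2-ybbR (50 mM Hepes pH 7.6, 10 mM MgCl2). Rate came from the fluorescence difference over 30 min, ex 525/em 598 nm.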
CtBP-E1A inh – blocks the CtBP interaction with E1A; activity change, % (no concentration beside the values); AlphaScreen GST-E1A/His-CtBP binding, 1536-well; stronger effect = lower value; control for the full effect not named in the record; 340,000 tested, 0.49% active; AID 651724; in the data active means activity change below about -65%; inconclusive means about -30% to -65%; inactive means above about -30%; also: % is scaled to controls: 0 for no effect and ±100 for the full control effect; compound concentration not given in the record
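AlphaScreen with 125 nM GST-E1A and 125 nM His-CtBP (5X stocks) in Tris pH 8.0, 300 mM NaCl, BSA, Tween 20, TCEP. Compounds preincubated 2 h at 37 deg C, then glutathione donor/nickel acceptor beads added for 1 h at 37 deg C in dark.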
D2 potentiator – human D2 receptor positive allosteric modulation. P14416. DiscoveRx D2 beta-arrestin cells, luminescence, 90 min; 100% = 57 uM dopamine signal. potentiation, % (concentration not given with the values). 360,000 tested, 0.23% active; active = potentiation of 50% or more; inconclusive = 30% to 50%; inactive = 30% or less;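 also: compound concentration not given in the record; tested on top of an EC20 dose of dopamine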
Target sequence (P14416 whole entry, looked up): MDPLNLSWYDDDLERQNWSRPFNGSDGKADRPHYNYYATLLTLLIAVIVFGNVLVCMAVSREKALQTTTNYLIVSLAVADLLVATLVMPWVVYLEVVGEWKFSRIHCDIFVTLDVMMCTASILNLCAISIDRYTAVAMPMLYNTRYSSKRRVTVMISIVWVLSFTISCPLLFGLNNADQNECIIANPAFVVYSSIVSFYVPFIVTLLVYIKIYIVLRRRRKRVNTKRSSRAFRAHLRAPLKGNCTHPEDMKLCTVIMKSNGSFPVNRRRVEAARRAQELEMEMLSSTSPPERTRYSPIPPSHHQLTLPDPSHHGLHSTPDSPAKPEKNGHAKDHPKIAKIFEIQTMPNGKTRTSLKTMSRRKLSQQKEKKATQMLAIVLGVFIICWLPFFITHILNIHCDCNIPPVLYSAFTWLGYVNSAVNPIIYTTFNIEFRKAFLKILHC
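PathHunter D2 cells, attached overnight at 37 deg C, received compound in DMSO plus dopamine at EC20 (50 nM final) for 90 min at 37 deg C. Beta-arrestin recruitment was read as luminescence after 1 h with detection reagent at ambient temperature.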
Six1-Eya2 blk – Six1/Eya2 interaction inhibition. activity change, % (concentration not given with the values). Q15475+O00167. AlphaScreen GST-Six1/His-Eya2 binding, biochemical; stronger effect = lower value; control for the full effect not named in the record. 360,000 tested, 0.56% active; in the data active = activity change below about -65%; inconclusive = about -30% to -65%; inactive = above about -30%; also: % is scaled to controls: 0 for no effect and ±100 for the full control effect
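Six1/Eya2 binding was read as AlphaScreen signal after compounds were pinned into GST-Six1 plus His-tagged Eya2 (5X stock 250/500 nM) in pH 8.0 Tris/NaCl/TCEP buffer, beads added, then incubated 1 h, 37 C, dark.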
D2 agonist – agonists of human D2 dopamine receptor (beta-arrestin). DiscoveRx PathHunter D2 beta-arrestin, luminescence, 90 min; 100% = 57 uM dopamine signal. 360,000 tested, 0.084% active. activation, % (no concentration beside the values). P14416; in the data active = activation above about 40%; inconclusive = about 15% to 40%; inactive = below about 15%; also: compound concentration not given in the record; the text of the record calls up to 30% inactive
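Agonist mode: compounds alone added to overnight-plated D2 PathHunter cells for 90 min at 37 C, with 57 uM final dopamine (EC100) defining full response. Beta-arrestin recruitment detected by chemiluminescent reagent, read after 1 h at ambient temperature.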
An asterisk follows results filed as active; ? = inconclusive; . = no result given; & = joins results of further samples; [ ] = dose if it differs, or a comment. No enrichment for hits. About 3.7% of those tested had a hit in this group.

SMILES	PINK1 expr mod	TRPV1 potentiator	Sfp PPTase inh	CtBP-E1A inh	D2 potentiator	Six1-Eya2 blk	D2 agonist
CCCCn1c(SCc2nc(N)nc(Nc3ccccc3C)n2)nc2ccccc2c1=O	5.1%	7	-2%	5	14	0	-4.5
Fc1ccc2cnc(-c3ccccc3)c(-c3cc(C(F)(F)F)cc(C(F)(F)F)c3)c2c1	3.4%	.	.	7	5	-4	1.3
CNC(=S)Nc1ccc(Cc2ccncc2)cc1	1.7%	1	5%	8	-2	-5	-0.2
COC(=O)c1cc(Br)ccc1NC(=O)Nc1ccccc1	1.1%	-30	-13%	3	-4	3	-6.4
O=C(Nc1ccccc1)OCCCCOC(=O)Nc1ccccc1	4.6%	.	.	-3	-14	1	-1.4
Cc1cccc2[nH]c(SCC(=O)O)nc12	-0.1%	5	20%	-20	-8	2	-4.0
CC(=O)c1cccc(NC(=O)c2cc(C)no2)c1	-0.8%	-1	7%	6	0	8	-1.3
COc1cc(/C=C/c2cc[n+](C)cc2)ccc1OCC(=O)Nc1ccc(Cl)c(Cl)c1	?	2	-58%	22	5	16	5.1
Cc1cc(C)cc(OCC(=O)NNC(=S)NC(=O)C2CC2)c1	0.6%	8	24%	-15	-19	-12	-2.5
c1ccc(C2(c3ccccc3)OCC(Cn3cncn3)O2)cc1 (stereo not given)	-0.5%	-14	4%	4	-22	-7	-3.3
O=C(c1ccccc1)c1cnc(Nc2ccc(Cl)c(Cl)c2)s1	5.2%	.	8%	2	-10	5	-1.9
O=C(COc1ccc(Cl)cc1Cl)NCc1ccco1	0.6%	12	9%	-3	-4	-6	-0.3
O=C1NCCN1CCNS(=O)(=O)c1cc(C(F)(F)F)cc(C(F)(F)F)c1	-0.9%	-6	8%	7	-8	7	0.3
O=C(c1cnn2c(C(F)F)cc(C3CC3)nc12)N1CCc2ccccc2C1	2.8%	3	3%	-3	-19	14	-6.3
O=C(O)c1cccnc1Sc1ccc(Br)cc1	2.0%	4	16%	-12	3	6	-4.4
O=[N+]([O-])c1ccc(S(=O)(=O)Nc2ccc3c(c2)OCCO3)cc1	1.2%	-2	?	.	8	11	?
O=C1NC(Cc2ccccc2)c2nc3cc(Cl)ccc3c(=O)n2-c2ncccc21 (stereo not given)	1.0%	.	.	-19	0	0	-6.5
CN(C(=O)C1Cc2c(-c3ccc(Cl)cc3)ccnc2O1)c1ccccc1 (stereo not given)	0.6%	.	.	2	-23	-5	-2.5
Cc1cc(OCC(=O)NCCCN(C)C)cc(C)c1Br	0.5%	-4	-11%	5	-24	14	-2.5
S=c1[nH]nc(Cc2ccc(Cl)cc2)n1-c1ccc2c(c1)OCCO2	2.0%	?	-18%	.	-6	-2	0.8
Cc1ccc(OCC(=O)Nc2cccc(C)n2)c(C)c1	-0.9%	-13	23%	2	-5	1	-3.2
Cc1ccc(NC(=O)c2sc3nc(CCl)[nH]c(=O)c3c2C)c(C)c1	-1.2%	-3	3%	4	-4	5	0.1
O=[N+]([O-])c1ccc(O)c(/C=N/NC(=S)Nc2ccc(Cl)cc2Cl)c1	40µM*	-25	-20%	-22	0	-17	-2.1
Cc1c(C(=O)OCC(=O)NC2CC2)oc2ccc(Br)cc12	1.3%	-5	.	-1	0	5	-6.8
O=C(Nc1ccc([N+](=O)[O-])cn1)c1ccc(Br)o1	2.4%	-25	5%	-4	-21	-2	-1.2

3 entries from above in another layout.
Compound: CNC(=S)Nc1ccc(Cc2ccncc2)cc1
- PINK1 expr mod = 1.7%
- TRPV1 potentiator = 1
- Sfp PPTase inh = 5%
- CtBP-E1A inh = 8
- D2 potentiator = -2
- Six1-Eya2 blk = -5
- D2 agonist = -0.2
Compound: COC(=O)c1cc(Br)ccc1NC(=O)Nc1ccccc1
- PINK1 expr mod = 1.1%
- TRPV1 potentiator = -30
- Sfp PPTase inh = -13%
- CtBP-E1A inh = 3
- D2 potentiator = -4
- Six1-Eya2 blk = 3
- D2 agonist = -6.4
Compound: O=C(Nc1ccccc1)OCCCCOC(=O)Nc1ccccc1
- PINK1 expr mod = 4.6%
- TRPV1 potentiator = .
- Sfp PPTase inh = .
- CtBP-E1A inh = -3
- D2 potentiator = -14
- Six1-Eya2 blk = 1
- D2 agonist = -1.4

Following part.
SMILES	PINK1 expr mod	TRPV1 potentiator	Sfp PPTase inh	CtBP-E1A inh	D2 potentiator	Six1-Eya2 blk	D2 agonist
CC(=O)c1sc(NC(=O)CCNC(=O)c2ccco2)nc1-c1ccccc1	3.3%	-14	-1%	-10	-25	-5	-3.8
C=CCn1c(N)c(-c2nc3ccccc3n2C)sc1=S	25%[38.3 µM]	-12	-28%	5	-9	-1	-0.8
CCC1CCc2c(sc(NC(=O)c3ccoc3C)c2C(N)=O)C1 (stereo not given)	-0.1%	-6	-8%	-5	-4	-9	1.6
O=C(NCCCl)NNc1c(Cl)cc(Cl)cc1Cl	-0.9%	3	-24%	-3	-22	4	-15
CCOc1ccc(S(=O)(=O)Nc2cc(SCC(=O)O)c(O)c3ccccc23)cc1	16%	13	-84%	.	-34	-13	?
Cc1cc(C)n(-c2nc(NCc3cccnc3)c3c4c(sc3n2)COC(C)(C)C4)n1	2.2%	-31	-24%	-20	-4	-15	-1.3
Nc1c(N2CCN(c3ccccc3)CC2)c2ccccc2oc1=O	?	-14	-2%	-1	-26	-20	-4.2
COc1ccc(C(CNC(=O)c2cc(F)c(F)c(F)c2F)N2CCOCC2)cc1 (stereo not given)	9.4%	-8	4%	1	-11	3	-3.0
C[C@H](CO)N1C[C@H](C)[C@@H](CN(C)C)Oc2c(NS(=O)(=O)c3cccs3)cccc2C1=O	-0.7%	.	.	5	.	7	0.3
Cc1ccc(S(=O)(=O)Nc2ccc(C(=O)NCc3cccnc3)cc2)cc1	1.1%	3	19%	2	-2	4	1.2
CC(=O)Nc1ccc(NC(=O)c2ccccc2N(C)S(=O)(=O)c2ccc(C)cc2)cc1	0.3%	-6	4%	-10	0	1	-3.2
O=C(NCC(c1ccc(F)cc1)N1CCOCC1)c1c(F)cccc1F (stereo not given)	1.7%	-3	15%	4	-5	87	-1.8
COc1ccc(C(=O)N[C@H](C(=O)OCn2nnc3ccccc3c2=O)C(C)C)cc1	-1.1%	15	.	0	-4	0	-3.2
Cc1ccc(S(=O)(=O)/N=C/c2ccco2)cc1	-5.8%	2	10%	8	2	5	-0.4
CCN1CCN(C(=S)NCCOC)CC1	-0.5%	-6	-6%	10	4	6	-0.7
O=c1ccc(-c2ccccc2)nn1Cc1ccc(F)cc1	2.8%	-10	2%	-12	-12	-5	1.5
CC(NC(=O)C1CCN(C(=O)c2ccc(F)cc2)CC1)c1ccc(S(N)(=O)=O)cc1 (stereo not given)	-1.0%	.	.	6	-8	-4	0.3
CN(CC(=O)Nc1ccccc1Cl)C(=O)COC(=O)CNC(=O)c1ccc(Br)o1	-4.2%	.	.	0	-2	-4	0.0
NC(=O)C1CCN(C(=O)C2CC(=O)N(c3ccc(F)cc3)C2)CC1 (stereo not given)	0.0%	10	9%	0	-3	-1	-3.8
O=C1Nc2cc(C(=O)N3CCN(c4ccc(F)cc4)CC3)ccc2NC1CSCc1cccc(F)c1 (stereo not given)	1.1%	14	45µM*	-7	-5	-15	-1.1
CN(C)c1ccc(SC#N)cc1	0.8%	-8	7%	?	-55	-23	-19
COc1ccc2cc(C(C)C(=O)N3CCC(C(N)=O)CC3)ccc2c1 (stereo not given)	1.5%	0	12%	6	-5	2	0.0
O=S(=O)(c1ccc(SCc2ccccc2)nc1)N1CCCCCC1	-0.4%	-6	.	.	-6	39	-3.7
CNC(=S)NCCN1CCOCC1	-0.6%	21	-6%	7	-15	5	0.4
CCCCN(C(=O)c1ccccc1Br)C1CCS(=O)(=O)C1 (stereo not given)	3.3%	5	.	5	24	2	3.0
Additional entries:
SMILES	PINK1 expr mod	TRPV1 potentiator	Sfp PPTase inh	CtBP-E1A inh	D2 potentiator	Six1-Eya2 blk	D2 agonist
COc1ccc(N(CC(=O)Nc2cccnc2)S(C)(=O)=O)cc1	0.9%	-5	16%	-15	1	-2	-5.2
COc1ccc(C(=O)Nc2nnc(S(=O)(=O)Cc3ccc(F)cc3)s2)cc1	-0.6%	5	20%	1	3	1	-3.4
COc1ccccc1-n1c2c(cc(C(=O)N3CCC(C)CC3)c1=O)C(=O)CC(C)(C)C2	-2.3%	-3	22%	10	1	0	-2.0
Cc1ccc(-n2nc3ccc(N)cc3n2)cc1C	11%	-4	-21%	.	-33	-8	-5.9
CCn1c(=O)c(C(C)=O)c(O)c2ccccc21	1.1%	5	-8%	-1	-3	3	-3.5
CCC(C)[C@H](NC(=O)N1CC(=O)Nc2ccccc21)C(=O)N[C@H](C(=O)O)c1ccccc1 (stereo not given in full)	-0.9%	9	2%	.	-4	5	3.5
Cc1ccc(S(=O)(=O)NCc2ccncc2)cc1C(=O)NCC(C)C	1.2%	3	-9%	-4	1	3	-3.0
Cc1ccc(S(=O)(=O)c2nnn3c2nc(Nc2cccc(C)c2)c2ccccc23)cc1	12%	2	11%	-5	-21	-2	-2.8
CNC(=O)c1ccsc1NC(=O)C1CCCN1S(=O)(=O)c1cccs1 (stereo not given)	0.0%	16	.	-2	-2	4	-1.3
O=C(NC1(O)C(=O)c2ccccc2C1=O)c1c(Cl)cccc1Cl	1.8%	0	13%	-18	-36	9	-7.6
O=C(Oc1ccc(Br)cc1)c1n[nH]c(=O)c2ccccc12	0.1%	9	-1%	2	4	0	-2.3
COCc1cc(C)nc(SCC[N+](C)(C)CC(=O)Nc2cccc(C(F)(F)F)c2)c1C#N	8.6%	15	23%	1	-52	10	-5.6
CCOc1ccc(CCNC(=O)COC(=O)/C=C/c2ccco2)cc1OCC	-0.4%	-21	3%	2	-8	-1	-2.8
NC(=S)N=Nc1c(O)cc(O)c2[nH]c(=O)ccc12	0.9%	.	.	-3	66*	-85*	?
CCc1ccc(OCCCC(=O)NCc2ccco2)cc1	5.0%	-6	?	.	-4	-10	0.8
Cc1ccc(C(=O)OCN2C(=O)c3ccccc3C2=O)cc1S(=O)(=O)N1CCOCC1	-1.2%	-4	.	0	-7	24	-6.5
Nc1ccc(S(=O)(=O)Nc2cnc3ccccc3n2)cc1	0.0%&2.5%&-0.8%	9&-5	9%&6%&7%&5%	8&2	-5&-4	3&12	-6.5&-20
CCC(C)(C)NC(=O)C(c1ccccc1F)N(Cc1ccco1)C(=O)Cn1nnc2ccccc21 (stereo not given)	-1.9%	-5	15%	6	-3	-12	-5.8
Cc1ccc(NC(=O)c2nnn(CC(=O)Nc3ccc4c(c3)OCO4)c2N)cc1C	1.0%	-12	-6%	.	-14	-2	2.3
